TRPV1 potentiator = human TRPV1 potentiation. hit rate 0.02% among 320,000. AID 540277. TRPV1-expressing cells, Fluo-8 calcium influx, capsaicin EC20 potentiation; host cell line not named in the record; control for the full effect not named in the record. potentiation, % at 8.33 µM; active means potentiation above 80%; inconclusive means 30% to 80%; inactive means below 30%; also: 0% is about no effect
Target sequence (Q8NER1 whole entry, looked up): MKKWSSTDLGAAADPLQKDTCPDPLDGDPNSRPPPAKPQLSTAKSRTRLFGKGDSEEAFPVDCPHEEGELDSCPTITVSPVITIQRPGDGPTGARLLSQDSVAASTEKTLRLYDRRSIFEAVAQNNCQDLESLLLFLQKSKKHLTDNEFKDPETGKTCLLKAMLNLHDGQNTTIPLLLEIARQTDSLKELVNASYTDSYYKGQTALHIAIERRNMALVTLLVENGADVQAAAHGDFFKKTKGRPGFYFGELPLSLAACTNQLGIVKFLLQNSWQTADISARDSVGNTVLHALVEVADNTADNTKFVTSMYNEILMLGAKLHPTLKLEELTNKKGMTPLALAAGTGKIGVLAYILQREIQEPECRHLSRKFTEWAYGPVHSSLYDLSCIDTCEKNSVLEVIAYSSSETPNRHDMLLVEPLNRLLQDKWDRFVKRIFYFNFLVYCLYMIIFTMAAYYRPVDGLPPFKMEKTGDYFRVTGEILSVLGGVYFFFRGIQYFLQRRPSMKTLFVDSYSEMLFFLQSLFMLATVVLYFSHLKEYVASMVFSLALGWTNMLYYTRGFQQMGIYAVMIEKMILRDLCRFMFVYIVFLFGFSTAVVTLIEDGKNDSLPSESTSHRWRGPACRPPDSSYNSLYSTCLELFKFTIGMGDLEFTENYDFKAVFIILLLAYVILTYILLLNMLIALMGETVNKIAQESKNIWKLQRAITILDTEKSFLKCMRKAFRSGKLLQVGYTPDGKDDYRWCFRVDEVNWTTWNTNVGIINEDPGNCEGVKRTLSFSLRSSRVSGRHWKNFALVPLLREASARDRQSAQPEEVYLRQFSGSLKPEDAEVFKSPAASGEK
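TRPV1-expressing cells were cultured overnight at 35.5C and loaded with Fluo-8 calcium dye for 40 to 90 min at room temperature. After a 10 s baseline, compound was added and calcium influx was read kinetically for 3 min (ex 480/em 520 nm).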
CtBP-E1A inh = inhibitors of CtBP/E1A interaction; AlphaScreen GST-E1A/His-CtBP binding, 1536-well; hits give low values; control for the full effect not named in the record; activity change, % (test concentration not listed); hit rate 0.49% among 340,000; in the data active means activity change below about -65%; inconclusive means about -30% to -65%; inactive means above about -30%; also: % is scaled to controls: 0 for no effect and ±100 for the full control effect; compound concentration not given in the record
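Protein mix (5X: 125 nM each GST-E1A, His-CtBP) was incubated with pinned compound 2 h at 37 deg C in dark, in 50 mM Tris pH 8.0 buffer with 300 mM NaCl. Glutathione donor and nickel acceptor beads followed; AlphaScreen signal read after 1 h.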
TRPML1 blocker = blocks the human TRPML1 channel; Q9GZU1; TRPML1-inducible cells, Ca2+ dye fluorescence, FDSS; hits give low values; inhibition of EC80 agonist-evoked calcium signal; activity change, negative = inhibition, % (no concentration beside the values); hit rate 0.02% among 390,000; AID 624415; in the data active means activity change below about -50%; inconclusive means about -30% to -50%; inactive means above about -30%;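 also: stimulus is agonist 54-4 at its EC80 concentration; % is scaled to controls: 0 for no effect and ±100 for the full control effect; compound concentration not given in the record; the text of the record puts the active cut at -80%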
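Tet-induced TRPML1-DL cells loaded with Ca8 no-wash calcium dye were read kinetically on FDSS. Compound addition was followed by EC80 agonist 54-4 (4 uM final); inhibition was read over 110 s.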
TRPML1 agonist = agonists of human TRPML1 channel; TRPML1-expressing cells, Ca2+ dye fluorescence, FDSS; host cell line not named in the record; reference of the full effect not given here; AID 624414; hit rate 0.12% among 410,000; activation, % (concentration not given with the values); Q9GZU1; in the data active = activation above about 50%; inconclusive = about 30% to 50%; inactive = below about 30%; also: 0% is about no effect; the text of the record puts the active cut at 80%
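Tetracycline-induced TRPML1-DL cells are seeded and incubated overnight before loading with a no-wash Ca2+ dye and quencher. Agonist activity is taken from the 110 s fluorescence read following compound pin-transfer on an FDSS, before EC80 54-4 challenge.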
Six1-Eya2 blk = inhibitors of human Six1/Eya2 interaction. AlphaScreen GST-Six1/His-Eya2 binding, biochemical; hits give low values; control for the full effect not named in the record. activity change, % (concentration not given with the values). hit rate 0.56% among 360,000. Q15475+O00167; in the data active = activity change below about -65%; inconclusive = about -30% to -65%; inactive = above about -30%; also: % is scaled to controls: 0 for no effect and ±100 for the full control effect
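AlphaScreen luminescence read after one hour at 37 °C in darkness. Pin-transferred compounds met GST-Six1 and His-Eya2 protein (5X stock 250 nM/500 nM) plus glutathione donor and Ni-chelate acceptor beads (5X, 50 ug/mL).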
D2 PAM = potentiates the human D2 dopamine receptor allosterically. potentiation, % (no concentration beside the values). hit rate 0.23% among 360,000. P14416. DiscoveRx D2 beta-arrestin cells, luminescence, 90 min; 100% = 57 uM dopamine signal; active = potentiation of 50% or more; inconclusive = 30% to 50%; inactive = 30% or less;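 also: compound concentration not given in the record; tested on top of an EC20 dose of dopamine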
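PathHunter D2 cells, attached overnight at 37 deg C, received compound in DMSO plus dopamine at EC20 (50 nM final) for 90 min at 37 deg C. Beta-arrestin recruitment was read as luminescence after 1 h with detection reagent at ambient temperature.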
* marks the source's active call; other numbers are inactive results; u = inconclusive; x = not tested or not shown.

SMILES	TRPV1 potentiator	CtBP-E1A inh	TRPML1 blocker	TRPML1 agonist	Six1-Eya2 blk	D2 PAM
Cc1nn(Cc2ccccc2Cl)c2sc(C(=O)Nc3ccccc3N3CCOCC3)cc12	-2	11	17	0.0	-3	-1
Cc1ccc(C(=O)N2CCN(c3ccc([N+](=O)[O-])cc3-n3cccc3)CC2)cc1	-30	-5	36	0.4	-27	-4
Cc1ccc(Nc2ncc3c(n2)CC(c2ccco2)CC3=O)c(C)c1 (configuration not stated)	-17	0	-19	0.3	-10	-1
Cc1cc(C(=O)Nc2ncc(C)s2)c2ccccc2n1	6	-8	-6	-0.4	-5	-5
CC(C)(C)n1nc2c(c1NC(=O)Cc1ccc(F)cc1)CS(=O)(=O)C2	12	-1	4	0.2	2	-5
Cc1cc(Cl)c2oc(C(=O)N3CCN(c4cccc(C)n4)CC3)c(C)c2c1	4	1	11	0.1	-4	-6
CN(C[C@H](c1ccccc1)N(C[C@H](Cc1ccccc1)N(CCc1ccccc1)N=O)N=O)N=O	u	-9	44	1.7	-6	-8
C[C@H]1COC(=O)CCCC/C=C\C[C@H](CC(=O)N(CCO)Cc2ccccc2)C(=O)N1	x	1	12	-0.8	7	-12
O=S(=O)(NCC1CCCN(Cc2ccccc2)C1)c1cccc2cccnc12 (configuration not stated)	-11	0	-4	-0.5	-5	-39
Cc1cc(C)n(S(=O)(=O)Cc2ccccc2)n1	8	3	5	0.0	7	-5
O=C(c1ccc(S(=O)(=O)N2CCCCCC2)cc1)N1CCC(CN2C(=O)c3cccc4cccc(c34)C2=O)CC1	-24	-2	4	0.8	-1	-7
CCCCCNCc1ccc(Br)cc1	-4	-5	-11	-0.4	3	-22
CCCCCCN1C[C@H](n2cc(-c3ccc(F)cc3)nn2)[C@@H](O)C[C@@H]1c1ccc(Cl)cc1	x	3	52	0.9	-4	-1
Cc1ccc(S(=O)(=O)N2C[C@@H]3CCCC[C@@H]3[C@@H](C)[C@H]2c2cn(Cc3ccccc3)c3ncccc23)cc1	x	2	71	0.7	-10	-2
COc1ccc(NC(=O)c2ccccc2F)cc1Cl	-12	5	9	-0.7	1	-2
S=C(NCc1ccccc1)NCc1ccc(CNC(=S)NCc2ccccc2)cc1	-6	-24	16	2.6	-17	2
Cc1cc(C(=O)OCC(=O)Nc2cccc(S(=O)(=O)N3CCOCC3)c2)c(C)o1	0	21	-5	0.1	3	2
O=C(Cc1csc(Nc2nc(=S)[nH]c3ccccc23)n1)NCCCN1CCN(c2cccc(Cl)c2)CC1	-10	u	-1	0.7	u	-17
COc1cc(NC(=O)C2C3C=CC(C3)C2C(=O)O)c(OC)cc1Cl (configuration not stated)	-5	3	-4	0.1	1	2
CC1(C(=O)NS(=O)(=O)Cc2ccccc2)CCN1C(=O)Cc1ccc(-c2ccccc2)cc1 (configuration not stated)	x	0	x	-0.8	-6	-3
COC1OC(COCc2ccccc2)C(N)C(OCc2ccccc2)C1OCc1ccccc1 (configuration not stated)	x	8	26	1.7	12	-8
O=C(COC(=O)c1ccc([N+](=O)[O-])o1)NCc1ccccc1	x	-2	5	0.0	2	22
Cc1ccccc1-n1c(=O)c2c(n3cnnc13)-c1ccccc1CC21CCCCC1	7	0	-4	0.9	-9	-5
Cc1ccc(S(=O)(=O)N2CCOCC2)cc1NC(=O)c1ccncc1	x	0	-6	-0.5	-5	-12
CCOC(=O)N1CCN(S(=O)(=O)c2cc(C)c(C)cc2C)CC1	-4	2	-12	-0.7	3	0
Cc1nc2ccccc2c(=O)n1NC(=O)c1cccc([N+](=O)[O-])c1	2	9	1	0.9	1	-2
CCOc1ccccc1NC1=C(Cl)C(=O)N(c2ccccc2)C1=O	6	-3	50	3.8	-16	-14
CCOC(=O)N1CCC(N(C(=O)Nc2cccc(OC)c2)C(C)CC)CC1 (configuration not stated)	11	0	12	0.9	-2	-4
CCCn1c(=S)[nH]c2ccccc2c1=O	2	-22	46	0.9	8	-4
Cc1cc(C)c(C#N)c(SCCS(=O)(=O)c2ccc(Cl)cc2)n1	11	17	13	3.8	17	-5
CCN(CC)CCNC(=O)CCN1N=C(c2ccccc2)CCC1=O	18	4	-18	0.3	9	0
O=C(O)Cc1ccc(S(=O)(=O)Nc2ccccc2C(=O)O)cc1	-4	-17	19	-0.6	0	-1
CO/N=C/CC(=O)c1cnc(-c2ccc(Cl)cc2)s1	19	-12	-11	0.6	3	-5
Cc1ccc(S(=O)(=O)N2CCN(C(=O)c3cc(S(=O)(=O)N(C)C)ccc3N3CCCC3)CC2)c(C)c1	11	4	-6	1.6	15	-40
COc1ccc(-c2csc(NC(=O)Cc3ccccc3F)n2)c(OC)c1	-15	-4	4	-0.4	-6	3
CCS(=O)(=O)N1Cc2ccccc2CC1C(=O)N(C)CC(=O)Nc1cccc(F)c1 (configuration not stated)	-10	0	9	-0.2	2	-10
CC(=O)Nc1ccc(NC(=O)C2Cc3c(-c4cccc(F)c4)ccnc3O2)cc1 (configuration not stated)	x	4	x	-0.6	-1	-4
O=C(/C=C/c1cccc([N+](=O)[O-])c1)NC(=S)Nc1ccc(CN2CCOCC2)cc1	-12	-1	5	-0.6	1	-11
CN(Cc1ccccc1)C(=O)c1ccc([N+](=O)[O-])o1	17	x	19	0.4	5	2
CCOc1ccc(NC(=O)c2ccc(NC(=O)CN3C(=O)C(=O)N(CC(C)C)C3=O)cc2)cc1	23	5	-9	-0.3	0	-21
COc1ccc(S(=O)(=O)N(Cc2cccnc2)Cc2cc3ccccc3[nH]c2=O)cc1	0	-3	-24	0.7	0	4
CC(Oc1ccccc1)C(=O)N=C1SC2CS(=O)(=O)CC2N1c1ccccc1 (configuration not stated)	2	x	-2	-1.0	5	-9
COc1ccc2cc(C(=O)C3CCCN(C(=O)c4sc(C)nc4C)C3)ccc2c1 (configuration not stated)	-15	x	26	0.2	-1	-2
Cc1csc(=O)n1CC(=O)Nc1ccc(Cl)c(Cl)c1	x	-5	7	-0.1	2	-6
Cc1ccccc1Nc1nc(N)nc(COC(=O)/C=C/c2ccco2)n1	13	x	5	2.5	-7	-2

Of the compounds above, six have an aryl methoxy group.
SMILES	TRPV1 potentiator	CtBP-E1A inh	TRPML1 blocker	TRPML1 agonist	Six1-Eya2 blk	D2 PAM
COc1ccc(NC(=O)c2ccccc2F)cc1Cl	-12	5	9	-0.7	1	-2
COc1cc(NC(=O)C2C3C=CC(C3)C2C(=O)O)c(OC)cc1Cl (configuration not stated)	-5	3	-4	0.1	1	2
CCOC(=O)N1CCC(N(C(=O)Nc2cccc(OC)c2)C(C)CC)CC1 (configuration not stated)	11	0	12	0.9	-2	-4
COc1ccc(-c2csc(NC(=O)Cc3ccccc3F)n2)c(OC)c1	-15	-4	4	-0.4	-6	3
COc1ccc(S(=O)(=O)N(Cc2cccnc2)Cc2cc3ccccc3[nH]c2=O)cc1	0	-3	-24	0.7	0	4
COc1ccc2cc(C(=O)C3CCCN(C(=O)c4sc(C)nc4C)C3)ccc2c1 (configuration not stated)	-15	x	26	0.2	-1	-2

More compounds
SMILES	TRPV1 potentiator	CtBP-E1A inh	TRPML1 blocker	TRPML1 agonist	Six1-Eya2 blk	D2 PAM
COn1c(SCc2cccnc2)nc2ccccc2c1=O	-7	0	0	2.1	-5	3
CCn1nc(C(=O)N2CCc3ccccc3C2)c2ccccc2c1=O	-23	u	-2	0.7	-21	0
CC(C)COc1ccc(-c2nnc(-c3ccncc3)o2)cc1	-8	-9	15	1.6	2	-5
CCc1c(O)nc(SCC(=O)Nc2ccccc2)n(-c2ccccc2C)c1=O	x	-3	0	-0.1	3	-11
Cc1cccc(OCC(=O)NC(Cc2ccccc2)C(=O)O)c1 (configuration not stated)	0	8	-4	0.5	4	-10
NC(=O)N1OCC2COc3ccc4ccccc4c3C21 (configuration not stated)	1	-7	-13	0.6	10	-6
COCCn1c(SCC(=O)NC(=O)Cc2ccccc2)nc2ccccc2c1=O	28	3	10	2.3	3	-1
O=C(CSc1nnc(-c2ccco2)o1)N1CCOCC1	-9	7	15	3.2	4	2
COc1cccc(S(=O)(=O)NCc2ccc(C(=O)Nc3ccc(Cl)c(Cl)c3)cc2)c1	-4	1	17	1.9	2	0
COc1ccc(-n2nc(C(=O)NCC(=O)N3CCN(c4ccccc4)CC3)c3ccccc3c2=O)c(OC)c1	-2	2	-9	0.9	-2	0
O=C(NCc1cccnc1)c1cc(C2CCCN(C(=O)c3cccc(O)c3)C2)on1 (configuration not stated)	x	5	x	-0.7	2	8
Cc1nonc1C(=O)N1CCCC(N2CCN(c3ccc(F)cc3)CC2)C1 (configuration not stated)	8	0	4	0.5	3	-13
Cc1cccn2cc(-c3cccc(S(=O)(=O)N4CCOCC4)c3)nc12	-15	-22	23	1.0	-10	10
O=C(O)Cc1ccc(NC(=O)c2ccc(NC(=O)C3CC3)cc2)cc1	4	-4	1	-0.1	0	-19
CN(C)c1ccnc(Nc2ccc(F)cc2)c1C#N	4	14	0	0.1	5	2

Part of the list above, set out differently:
compound | TRPV1 potentiator | CtBP-E1A inh | TRPML1 blocker | TRPML1 agonist | Six1-Eya2 blk | D2 PAM
COc1ccc(-n2nc(C(=O)NCC(=O)N3CCN(c4ccccc4)CC3)c3ccccc3c2=O)c(OC)c1 | -2 | 2 | -9 | 0.9 | -2 | 0
CC(C)COc1ccc(-c2nnc(-c3ccncc3)o2)cc1 | -8 | -9 | 15 | 1.6 | 2 | -5

(more compounds)
SMILES	TRPV1 potentiator	CtBP-E1A inh	TRPML1 blocker	TRPML1 agonist	Six1-Eya2 blk	D2 PAM
CC1(C(=O)NC2CCN(Cc3ccccc3)CC2)CCN1Cc1ccc(OC(F)(F)F)cc1 (configuration not stated)	x	-5	x	2.7	1	-23
Cc1ccc(C2=NN(C(=O)c3ccco3)C(O)(C(F)(F)F)C2)cc1 (configuration not stated)	3	-19	-1	0.7	-2	-24
Cc1ccc(-n2c(O)c(C=NCc3ccccn3)c3ccccc3c2=O)cc1C	-4	x	24	0.2	14	-4
CC[C@]12c3[nH]c4ccc(OC)cc4c3CCN1C(=O)C(CC(=O)NCCCn1ccnc1)C[C@@H]2C(=O)N1CCN(C(=O)c2ccco2)CC1 (some centres not stated)	x	2	2	-0.1	6	-3
CCOc1ccc(OCc2nnc(SCC(=O)NC3CCS(=O)(=O)C3)n2-c2ccc(Cl)cc2)cc1 (configuration not stated)	-4	6	-2	-0.1	3	-4
CCc1ccc(CN2C(=O)c3ccccc3C2C(=O)NC(C)CC)cc1 (configuration not stated)	13	-8	4	0.8	-11	2
O=C1CC(N(O)c2ccccc2)C(=O)N1Cc1ccccc1 (configuration not stated)	15	5	-9	-0.2	1	u
COc1ccccc1-c1cn(S(=O)(=O)c2ccc(C)cc2)nc1N	3	-13	-8	1.3	-10	-1
CC1=C(C(=O)c2ccccc2)C(c2ccc(O)cc2)NC(=S)N1 (configuration not stated)	20	x	35	-0.8	5	-6
CC(NS(=O)(=O)c1cccc(Cl)c1)C(=O)N(C)C1CCN(C)CC1 (configuration not stated)	-5	x	-6	0.8	1	16
O=C(NCc1ccccc1)c1ccc(N2CCC3(CC2)CC(c2ccccc2)=NO3)c([N+](=O)[O-])c1	5	-13	-9	-0.8	-14	11
O=c1cc(-c2ccco2)nc(-c2cccs2)o1	27	-1	8	-0.6	3	7
C=CCOc1ccccc1CNCCNC(=O)c1nonc1N	6	0	-4	0.1	20	-12

Screens as filed in PubChem.
